Bfl-1 A1 inh: inhibitors of the anti-apoptotic protein A1, read as caspase activation | MEF A1-2A-BIM cells, Caspase-Glo 3/7 luminescence, 3 h; percent of clofoctol response, vehicle zero | caspase activation, % (test concentration not listed) | actives 0.066% (n = 330,000) | AID 2462;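 active means over half of replicate activation scores above 10%, or exactly half above 10 with the replicate mean above 10; inconclusive means replicate mean below 10 yet half the replicates above 10; inactive means over half of replicates below 10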;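 further: wells of about 30 µL received 50 nL stock; many hits fall short of the cut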
T cruzi repl: T. cruzi replication inhibition. T. cruzi beta-gal in NIH3T3, luminescence, 90 h. inhibition, % (test concentration not listed). actives 1.4% (n = 300,000);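 active means mean inhibition across valid replicates above about 55%, limit read from the data; inconclusive means mean below that limit but half or more replicates reach it; inactive means mean below it, under half of replicates reach it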;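 further: signal also drops with host cell toxicity which is not excluded here; 0% = plate median of DMSO wells and 100% = zero luminescence signal; higher percent means less beta-gal luminescence so fewer parasites; stock transfer was 50 nL into about 50 µL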
Vif A3G: HIV-1 Vif–A3G interaction blockers – biochemical, TR-FRET, GST-Vif 1-94, biotin-A3G peptide, dose response retest, primary screen (AID 1117319) | actives 0.57% (n = 260,000) | inhibition, %; hits with a dose series show IC50 in µM | TR-FRET GST-Vif / biotin-A3G peptide binding; higher % means a stronger effect; test concentration not given here; strong numbers were not always called active;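 active means above the screen mean plus three standard deviations and confirmed in dose response; inconclusive means results disagree or hit not tested in dose response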;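 further: Vif residues 1-94 fused to GST binding biotinylated APOBEC3G peptide 110-148; 0% = full assay without inhibitor and 100% = GST in place of GST-Vif; retest series ran down from 100 µM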
Calb FLC: C. albicans growth modulation with fluconazole; C. albicans CaCi-2 (fluconazole-resistant clinical isolate) + fluconazole, Alamar Blue growth, 48 h; actives 0.57% (n = 300,000); growth inhibition, % (test concentration not listed);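 active means most replicates above 75%; inconclusive means exactly half above 75%; inactive means most below 75%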;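 further: all wells also contain fluconazole at 8 µg/ml as a sub-toxic cotreatment; 0% = median of DMSO wells and 100% = median of geldanamycin control wells; wells of about 8 µL received 7.5 nL stock; the first replicate is given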
Beta apoptosis: beta cell apoptosis inhibition | actives 0.8% (n = 300,000) | AID 435005 | protection from apoptosis, % (no concentration beside the values) | INS-1E cytokine-induced death, ATP luminescence, 48 h; percent of positive-control rescue, neutral wells zero;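 active means all replicates at 75% or more, or half of them and the mean; inconclusive means half reach 75% but not the mean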;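 further: 0% = cytokine-treated negative control wells and 100% = positive control rescue; higher means more ATP so stronger rescue from cytokine killing; wells of about 40 µL received 100 nL stock; the first replicate is given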
rRNA inh HTS: selective bacterial rRNA inhibition in E. coli; GFP signal change (wild-type ribosome), % (test concentration not listed); actives 1.6% (n = 350,000); AID 720706; E. coli WT GFP vs humanized-ribosome RFP mutants, fluorescence, 24 h; active compounds read low; DMSO median 0, no signal -100;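 active means significant combined selectivity score with lowered wild-type GFP, culture density cut under 30%, mutant RFP and density less affected; inactive means any of these conditions unmet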; further: one replicate is shown; some compounds called inactive have numbers as strong as hits
RanGTP-Impb inh: disruptors of Ran-importin-beta complex formation – biochemical, FRET, CFP-Ran, YFP-importin-beta, homogeneous, primary screen | cell-free CFP-Ran/YFP-importin-beta FRET ratio | inhibition, % (test concentration not listed) | actives 1.1% (n = 300,000) | AID 2216;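 active means most replicates above 15%; inconclusive means exactly half above 15%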;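 further: 0% = DMSO wells and 100% = Ran loaded with GDP instead of GTP; wells of about 40 µL received 100 nL stock; the first replicate is given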
MLL AF4-AF9 inh: blocks AF4 peptide binding to human AF9; AlphaScreen, biotin-AF4 peptide binding to FLAG-AF9; P42568; actives 0.47% (n = 350,000); inhibition, % at 10 µM;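 active means every replicate reaching a set inhibition limit, whatever the replicate mean, cut at about 25% in these data; inconclusive means mean inhibition reaches that limit but some replicates miss it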;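 further: 0% = plate neutral control median and 100% = total signal loss; the record names both 10 and 1 µM as test concentration; the first replicate is given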
Target sequence (P42568 whole entry, looked up): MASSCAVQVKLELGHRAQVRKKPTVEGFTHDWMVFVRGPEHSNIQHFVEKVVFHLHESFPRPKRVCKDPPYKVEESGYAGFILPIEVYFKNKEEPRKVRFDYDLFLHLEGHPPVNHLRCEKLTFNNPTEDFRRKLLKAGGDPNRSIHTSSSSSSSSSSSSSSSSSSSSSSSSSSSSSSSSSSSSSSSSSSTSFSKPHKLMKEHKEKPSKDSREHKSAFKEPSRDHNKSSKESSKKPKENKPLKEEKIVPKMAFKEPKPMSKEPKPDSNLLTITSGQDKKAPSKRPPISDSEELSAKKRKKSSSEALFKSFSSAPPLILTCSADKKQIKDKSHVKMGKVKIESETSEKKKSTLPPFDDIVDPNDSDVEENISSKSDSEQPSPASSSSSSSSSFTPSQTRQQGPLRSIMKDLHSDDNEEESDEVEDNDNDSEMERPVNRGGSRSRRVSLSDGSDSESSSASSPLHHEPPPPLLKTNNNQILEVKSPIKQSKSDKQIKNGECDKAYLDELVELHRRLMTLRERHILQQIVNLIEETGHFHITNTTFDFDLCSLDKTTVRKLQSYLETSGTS
rRNA inh HTS OD600: further read-out of rRNA inh HTS, marked with its call; OD600 change, %; measured here: OD600 growth;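 optical density of the mix in the first replicate; 0 = DMSO median and -100 = no signal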
rRNA inh HTS RFP: recorded beside rRNA inh HTS, whose call it bears; RFP signal change, %; measured here: RFP humanized mutant strains;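 first replicate; 0 = DMSO median and -100 = no signal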
* = called active by the depositor; u = inconclusive; x = not tested or not shown; & = joins results of further samples. An excerpt, so the mix of outcomes need not match the whole.

mol,Bfl-1 A1 inh,T cruzi repl,Vif A3G,Calb FLC,Beta apoptosis,rRNA inh HTS,rRNA inh HTS OD600,rRNA inh HTS RFP,RanGTP-Impb inh,MLL AF4-AF9 inh
CCc1nc2ccccc2c(C(=O)OCC(=O)Nc2cccc(S(=O)(=O)N3CCOCC3)c2)c1C,1.6,-21,4%,-3,0,x,x,x,-3.9,x
O=C(Cc1ncc(C(F)(F)F)cc1Cl)N1CCN(c2ccc(F)cc2)CC1,1.1,0,1%,-3,x,x,x,x,-2.6,x
CCOC(=O)N1CCN(CCC(=O)Nc2ccc(OC(F)(F)F)cc2)CC1,-0.4,-39,12%,x,-1,x,x,x,1.0,x
Cc1cc(N2CCCC2=O)ccc1S(=O)(=O)N1CCOCC1,0.3,-9,x,4,3,14,17,-1.6,0.3,0.9
Cc1ccc(NC(=O)C(=O)c2cn(CC(=O)N3CCCCC3)c3ccccc23)cc1,-1.6,-4,x,18,14,3,-6,6.4,1.9,1.6
Fc1ccc(-c2nc3nc4ccccc4nc3n2Cc2ccco2)cc1,-5.5,-6,17%,4,0,x,x,x,0.9,x
CC1(C)CC(=O)C(N=Nc2cccnc2)=C(O)C1,1.0,-36,9%,1,-5,5,2,2.0,4.6,1.6
Cc1ccc(S(=O)(=O)N(CC(=O)NCCSc2ccccn2)c2ccccc2F)cc1,0.2,6,x,-1,-1,-7,-9,3.2,-1.2,9.3
CC(=O)c1cc2c(cc1NC(=O)CSc1nnc(C)s1)OCO2,0.0,-5,21%,-3,-4,x,x,x,-0.4,x
Cc1ccc(NC(=O)CN(C)C(=O)Cc2c(Cl)cccc2Cl)cc1,-0.2,10,x,-23,-1,-1,-5,5.9,-1.7,3.1
COc1ccc(NS(=O)(=O)c2cc(N)ccc2N2CCCC2)cc1,0.3,x,6%,x,0,-16,13,-3.0,x,11
COC(=O)c1ccc2ccccc2c1OC1OC(CO)C(O)C(O)C1NC(C)=O (stereo unspecified),0.3,-16,x,-6,-3,27,11,3.7,u,0.0
COc1ccc(-c2csc(NC(=O)C3CSC4(C)CCC(=O)N34)n2)c(OC)c1 (stereo unspecified),-0.6,14,-2%,9,3,-4,-19,3.6,2.2,-7.9
c1ccc2c(CCNc3ncnc4nc[nH]c34)cccc2c1,-0.5,9,20%,-3,18,x,x,x,-1.4,x
COc1ccc(C2CC(c3ccccc3)=NN2C(=O)c2cccs2)cc1 (stereo unspecified),-0.4,22,11%,22,1,x,x,x,0.0,x
Cc1ccccc1Nc1nnc(C)c(=O)n1N,0.9,3,3%,-13,-8,0,-4,-3.7,4.0,-7.7
Cc1ccc(S(=O)(=O)NCc2ccccc2)cc1C(=O)N(C)Cc1ccccc1F,-0.9,8,x,9,2,-9,-19,-3.5,5.6,-4.1
Cc1ccc2c(cnn2C(=O)CCCC(=O)NCc2cccc(F)c2)c1,0.1,-1,x,1,-1,6,22,-2.3,5.8,-0.9
Cc1ccc2nsnc2c1NC(=O)Cc1ccc(Cl)cc1,0.0,-5,-1%,-1,-2,17,17,3.1,4.2,0.3
O=C(NC1CCCCCC1)C1CCCN(S(=O)(=O)c2cccs2)C1 (stereo unspecified),0.2,5,1%,10,-6,x,x,x,2.3,x
O=C(CNC(=O)Cc1ccccc1)NCC(=O)OCC(=O)c1ccc(Cl)cc1,-0.4,1,24%,-4,-6,x,x,x,4.0,x
CC1CCC2=NN(C(=O)c3ccco3)C(O)(C(F)(F)F)C2C1 (stereo unspecified),0.2,-7,x,6,1,2,1,0.5,-1.6,-1.5
O=C(c1ccc(S(=O)(=O)c2cccc(Cl)c2)c([N+](=O)[O-])c1)N1CCN(Cc2ccccc2)CC1,0.4,-32,x,-2,x,-5,-15,5.3,3.1,0.3
C/C=C(\C)CN1CCCC(CO)(Cc2ccccc2)C1 (stereo unspecified),0.7,-9,3%,2,-7,x,x,x,2.2,-10
O=S1(=O)N=C(N(CCO)/N=C/c2ccc(Cl)cc2)c2ccccc21,1.1,4,2%,-1,6,3,18,0.6,-7.1,-20
CNc1snc(C)c1C(=O)OCC(=O)N(C)Cc1ccccc1,0.5,x,4%,x,-1,0,-14,-1.5,x,0.9
O=C(NCCN=C1NS(=O)(=O)c2ccccc21)c1ccccc1,1.1,-4,x,-10,-13,2,8,-2.1,0.7,-2.0
CCNC(=O)C1CCN(S(=O)(=O)c2ccc(F)cc2)CC1,-0.7,2,17%,4,-3,x,x,x,-1.8,x
CCc1ccc(-c2cn(C3CCCCC3)c(=S)[nH]2)cc1,0.3,18,-12%,-16,24,0,3,-0.1,-2.9,-1.9
Cc1nc(C)n(CC(C)C(=O)N2CCN(S(=O)(=O)c3ccccc3)CC2)n1 (stereo unspecified),0.8,-10,2%,3,-4,6,8,-1.3,2.8,-1.1
CSCCC(NS(=O)(=O)c1ccc(Cl)cc1)C(=O)OCC(=O)N1CCOCC1 (stereo unspecified),1.2,-18,3%,-2,x,x,x,x,4.1,x
O=C(c1ccccc1S(=O)(=O)NCc1ccccc1)N1CCCCC1,-0.5,3,-4%,-3,x,-7,-4,-2.7,-2.3,-2.8
CC(C)CC1Nc2ncnc(N3CCN(c4ccccn4)CC3)c2N(Cc2ccccc2)C1=O (stereo unspecified),0.5,x,x,x,-1,-14&-19,-36&-10,15&-0.3,x,-27&5.2
COc1ccc(-c2nnc3sc(-c4ccco4)nn23)cc1OC,0.5,5,-4%,-4,-2,x,x,x,2.3,x
CCc1ccccc1NC(=O)CCOc1ccccc1,-1.8,-10,-5%,-12,-5,x,x,x,-1.8,x
CCc1cccc2sc(N(CCCN3CCOCC3)C(=O)CS(=O)(=O)c3ccccc3)nc12,0.9,-2,-4%,7,-7,-5,-8,1.8,-0.8,7.2
Nc1c(C(=O)N/N=C/c2ccc(Cl)cc2)cnn1-c1ccccc1,0.2,6,7%,5,-5,2,8,-3.2,0.4,-0.8
O=C(c1csc2ccccc12)N1CCN(c2ccc(Cl)c(Cl)c2)CC1,-0.2,8,5%,0,1,x,x,x,6.2,x
CCN(CC)CCCN(C(C)=O)c1nc(-c2cc(OC)ccc2OC)cs1,2.1,-13,24%,5,2,x,x,x,-0.1,x
COc1ccc(CCNC(=O)COC(=O)COc2ccc(C#N)cc2)cc1,0.0,-16,2%,-11,-8,3,-3,0.1,-1.6,0.3
CCC(NC(=O)Cc1c(C)c2ccc(OC)c(C)c2oc1=O)C(=O)NC(Cc1ccc(Cl)cc1)C(=O)O (stereo unspecified),0.3,-8,x,-8,-6,-10,-18,9.8,2.8,-3.8
COc1cc(CNCCCO)ccc1OCC(=O)NC(C)(C)C,0.3,-12,x,-1,-4,5,10,3.0,-1.5,-1.2
CCOC(=O)c1c(-c2ccccc2)oc2ccc(O)c(CN3CCN(C)CC3)c12,-0.1,0,x,3,-8,-48,-57,-15,0.9,16
O=C(Cc1cccs1)Nc1nnc(SCC(=O)N2CCCCC2)s1,1.4,1,19%,-14,-3,x,x,x,-0.4,x
Cc1cccc(N2C(=O)N3[C@@H]4c5ccccc5OC[C@@H]4[C@@H](c4ccccc4)[C@]3(C)C2=O)c1,0.2,23,x,5,2,x,x,x,0.3,x
O=C(NNC(=O)c1cc(-c2ccncc2)nc2ccccc12)c1ccccc1F,0.2,x,-3%,x,1,-12,-7,-7.3,x,1.0
O=C(NCCOCc1ccccc1)C(c1ccccc1)c1ccccc1,-0.6,3,5%,41,0,-35,-52,-12,-0.4,-0.4
Cc1ccc(Cl)cc1N1CCN(S(=O)(=O)c2c(C)nc3scc(C)n3c2=O)CC1,-1.1,40,-3%,-14,-3,-5,-15,5.4,-2.1,0.4
O=C(NCC1CCCCC1)c1ccc(F)cc1Cl,-0.2,-11,x,-5,5,2,9,2.2,-1.2,0.5
COc1ccc(C(=O)Nc2ccc3[nH]c(-c4cccc(OC)c4)cc(=O)c3c2)cc1,0.5,-4,30%,-2,6,6,14,0.7,3.1,-7.8
O=C(CCCCCN1C(=O)c2ccccc2C1=O)Nc1ccc(S(=O)(=O)N2CCCCC2)cc1,0.7,3,-6%,-12,0,x,x,x,-2.8,x
O=C(CSc1ccc(-c2ccco2)nn1)N1CCCCCC1,-2.3,5,-12%,4,3,-7,2,2.4,0.9,0.1
O=C(O[C@@H]1OC2COC(=O)c3cc(O)c(O)c(O)c3-c3c(cc(O)c(O)c3O)C(=O)O[C@@H]([C@H]1O)[C@@H]2O)c1cc(O)c(O)c(O)c1,1.3,9,x,-2,1,x,x,x,5.5,x
CCCCN(C)C(=O)c1ccc(CS(=O)(=O)c2ccccc2C)o1,-0.1,-1,u,6,x,3,3,0.9,-4.7,0.5
CSc1nc2ccccc2cc1/C=C(\C#N)c1cccc(Cl)c1,-0.2,2,3%,0,20,x,x,x,-0.9,x
O=C(/C=C/c1ccccc1)NC(NC(=S)Nc1ccc(C(=O)O)cc1)C(Cl)(Cl)Cl (stereo unspecified),0.1,-17,-2%,7,-8,x,x,x,1.4,x
COc1ccc(NC(=O)COC(=O)CCc2nc3ccccc3c(=O)[nH]2)cc1Cl,0.0,x,x,x,-4,5,21,1.8,x,0.8
O=C(COc1ccc(Cl)cc1Cl)NN=C1CCCCC1,0.0,0,-6%,-21,2,0,-8,-0.1,2.8,-2.0
O=C(c1cccc(F)c1)N1C2C=CC(C2)C1(C(F)(F)F)C(F)(F)F (stereo unspecified),-0.3,-15,2%,-2,-1,x,x,x,1.2,x
Cc1ccc(S(=O)(=O)N2CCN(C(C)C(=O)NCC(C)c3ccccc3)CC2)cc1 (stereo unspecified),1.3,x,x,x,-1,-11,-15,3.1,x,-0.9

(further entries)
mol,Bfl-1 A1 inh,T cruzi repl,Vif A3G,Calb FLC,Beta apoptosis,rRNA inh HTS,rRNA inh HTS OD600,rRNA inh HTS RFP,RanGTP-Impb inh,MLL AF4-AF9 inh
O=C(NNc1nc2cc3c(cc2s1)OCCO3)c1ccccc1,0.8,-2,5%,3,-6,-27*,-5.6*,-4.1*,2.7,1.1
Cc1ccc2c(c1)[C@@H]1CN(C)CC[C@@H]1N2S(=O)(=O)c1ccc([N+](=O)[O-])cc1,-0.3,44,2%,-2,13,12,13,-2.2,4.8,8.8
Cc1ccc(NC(=O)CCc2c(C)[nH]c(=O)c(C#N)c2C)cc1,0.3,-3,-5%,5,-8,3,9,-1.4,-1.7,0.2
CCOc1cc(C(N)=O)cc(OCC)c1OCC,0.4,-2,0%,3,0,x,x,x,-1.6,x
O=C(Nc1cccc(Cl)c1Cl)c1ccccc1OCC(=O)N1CCOCC1,0.1,28,2%,12,x,6,6,-1.5,-4.2,-1.0
